Bioassay records: PubChem, several laboratories
ALR inh – inhibitors of human ALR sulfhydryl oxidase, primary screen, biochemical, H2O2 detection, HRP-luminol luminescence, single point; FAD-linked sulfhydryl oxidase ALR (Homo sapiens), P55789; AID 485317, 2010; purified ALR, DTT oxidation; 290,000 compounds, 3.8% hits; inhibition, % (no concentration beside the values);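 active = mean and each replicate at 75% or more; inconclusive = only one of the two met; inactive = neither met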;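 note: stock transfer was 7.5 nL into about 7.5 µL; 0% = neutral wells and 100% = wells with inactivated enzyme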
Target sequence (P55789 whole entry, looked up): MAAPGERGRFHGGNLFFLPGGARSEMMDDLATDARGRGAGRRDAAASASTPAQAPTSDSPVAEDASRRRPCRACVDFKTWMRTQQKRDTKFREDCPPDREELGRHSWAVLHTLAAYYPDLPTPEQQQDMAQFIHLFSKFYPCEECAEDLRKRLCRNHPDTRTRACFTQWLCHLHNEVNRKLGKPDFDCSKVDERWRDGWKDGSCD
LANA-H2B inh – blockers of LANA interaction with H2A/H2B – biochemical, FP readout, HTS, primary screen; Protein LANA1 (Human herpesvirus 8 type P (isolate GK18)), Q9QR71; cell-free LANA-H2A/H2B peptide, fluorescence polarization; inhibition, % (concentration not given with the values); 320,000 compounds, 0.6% hits; AID 2629, 2010; in the data active = inhibition mostly above about 10%, no sharp cut-off; inactive = mostly below about 6.7%;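 note: stock transfer was 7.5 nL into about 10 µL; 0% = median of vehicle wells and 100% = median of positive control wells; one replicate is shown; the record names a cut of 25% in any replicate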
Vif A3G – inhibitors of Vif binding to APOBEC3G peptide, primary screen, biochemical, TR-FRET, GST-Vif 1-94, biotin-A3G peptide, dose response retest (AID 1117319) | TR-FRET GST-Vif / biotin-A3G peptide binding; higher % means a stronger effect; test concentration not given here; strong numbers were not always called active | one-dose inhibition, %; IC50 in µM for titrated hits | 260,000 compounds, 0.57% hits | Virion infectivity factor (Human immunodeficiency virus type 1 group M subtype B (isolate …;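 active = above the screen mean plus three standard deviations and confirmed in dose response; inconclusive = results disagree or hit not tested in dose response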;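 note: Vif residues 1-94 fused to GST binding biotinylated APOBEC3G peptide 110-148; 0% = full assay without inhibitor and 100% = GST in place of GST-Vif; retest series ran down from 100 µM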
RanGTP-Imp inh – inhibitors of RanGTP-importin-beta interaction, primary screen, biochemical, FRET, CFP-Ran, YFP-importin-beta, homogeneous | inhibition, % (no concentration beside the values) | Ran GTPase (GTP-bound) - importin-beta complex | 300,000 compounds, 1.1% hits | AID 2216, 2009 | cell-free CFP-Ran/YFP-importin-beta FRET ratio;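 active = most replicates above 15%; inconclusive = exactly half above 15%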;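 note: 0% = DMSO wells and 100% = Ran loaded with GDP instead of GTP; wells of about 40 µL received 100 nL stock; the first replicate is given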
B2AR ag – beta2AR agonists driving receptor internalization, primary screen, cell-based, FAP fluorogen, flow cytometry | AID 504454, 2011 | Beta-2 adrenergic receptor (Homo sapiens), P07550 | response, % (test concentration not listed) | Am2.2-beta2AR cells; reference of the scale not given here | 340,000 compounds, 0.43% hits;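 active = response above a set limit, near 3 SD of response in nonfluorescent compounds, cut at about 42% in these data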;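 note: stock transfer was 100 nL into about 11 µL; a reference agonist was the positive control; negative values mostly stem from fluorescent compounds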
Target sequence (P07550 whole entry, looked up): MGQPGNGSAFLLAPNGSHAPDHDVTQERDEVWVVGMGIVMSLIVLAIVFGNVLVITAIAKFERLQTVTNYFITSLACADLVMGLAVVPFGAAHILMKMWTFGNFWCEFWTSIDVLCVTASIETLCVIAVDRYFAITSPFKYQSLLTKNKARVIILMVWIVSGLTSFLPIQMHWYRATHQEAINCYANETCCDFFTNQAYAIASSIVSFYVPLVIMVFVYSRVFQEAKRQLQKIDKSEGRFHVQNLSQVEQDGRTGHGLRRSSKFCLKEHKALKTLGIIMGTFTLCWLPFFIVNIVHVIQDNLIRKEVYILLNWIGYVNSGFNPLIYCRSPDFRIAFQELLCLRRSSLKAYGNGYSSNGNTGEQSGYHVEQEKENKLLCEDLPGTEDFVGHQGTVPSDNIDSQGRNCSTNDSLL
HNF4A DNA FP – change in binding of human HNF4A to DNA, primary screen, biochemical, fluorescence polarization, FITC-DNA. Hepatocyte nuclear factor 4-alpha (Homo sapiens), P41235. 1 h. activity change, % at 10 µM. 360,000 compounds, 0.3% hits; in the data active = activity change above about 30%, passing the limit was not always enough;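 note: controls were the assay level and a saturating level of protein; the project sought stronger binding though the title names inhibitors; some compounds called inactive have numbers as strong as hits; positive values seem to mean higher polarization but the record does not say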
Target sequence (P41235 whole entry, looked up): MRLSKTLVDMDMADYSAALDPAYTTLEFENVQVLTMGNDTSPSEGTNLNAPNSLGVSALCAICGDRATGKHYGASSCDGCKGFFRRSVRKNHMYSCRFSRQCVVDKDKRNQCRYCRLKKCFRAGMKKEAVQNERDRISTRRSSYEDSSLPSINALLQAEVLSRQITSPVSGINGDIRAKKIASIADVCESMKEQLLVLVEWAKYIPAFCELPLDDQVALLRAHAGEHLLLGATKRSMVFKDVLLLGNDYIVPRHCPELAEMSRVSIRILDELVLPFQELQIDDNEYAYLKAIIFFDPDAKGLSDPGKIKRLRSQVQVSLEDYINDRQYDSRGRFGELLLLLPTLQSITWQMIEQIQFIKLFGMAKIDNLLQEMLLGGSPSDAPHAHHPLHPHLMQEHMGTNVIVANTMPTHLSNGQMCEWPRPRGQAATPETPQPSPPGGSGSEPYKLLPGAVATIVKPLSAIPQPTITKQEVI
Calb FLC – C. albicans growth inhibition with fluconazole, primary screen, CaCi-2 strain, Alamar Blue fluorescence; 300,000 compounds, 0.57% hits; growth inhibition, % (test concentration not listed); C. albicans CaCi-2 (fluconazole-resistant clinical isolate) + fluconazole, 48 h;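 active = most replicates above 75%; inconclusive = exactly half above 75%; inactive = most below 75%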;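 note: all wells also contain fluconazole at 8 µg/ml as a sub-toxic cotreatment; 0% = median of DMSO wells and 100% = median of geldanamycin control wells; wells of about 8 µL received 7.5 nL stock; the first replicate is given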
* hit, by the source's call; ? = inconclusive; . = not tested or not shown; & = joins results of further samples.

No. | Compound | ALR inh | LANA-H2B inh | Vif A3G | RanGTP-Imp inh | B2AR ag | HNF4A DNA FP | Calb FLC
1 | COc1ccc2cc(C(=O)NCc3ccco3)c(=O)oc2c1 | -3 | -6.9 | 0% | ? | 4 | 2.4 | 1
2 | Cc1cc(SCC(=O)N/N=C/c2ccc(C(=O)O)cc2)nc2ccccc12 | 99* | -1.0 | -3% | 3.6 | -3 | -1.9 | 4
3 | O=C(CSc1nc2ccccc2s1)NCc1cc([N+](=O)[O-])ccc1O | 99* | 2.2 | . | 3.2 | 2 | -3.7 | 8
4 | CC(C)[C@H](NC(=O)c1ccc(F)cc1)C(=O)NC1=NCCS1 | -2 | 2.4 | 10% | -3.8 | -3 | -0.4 | -2
5 | C/C(=N\OC(=O)c1ccc(C)cc1)c1sc(C)nc1C | 1 | -3.7 | 3% | 4.9 | 8 | -3.4 | 5
6 | O=C(NCc1ccco1)c1ccc(Cn2c(=O)c3ccccc3n(Cc3ccc(Cl)cc3)c2=O)cc1 | -19 | -3.5 | -8% | -2.8 | 0 | -3.5 | -6
7 | COc1ccccc1N1CCN(CCCOc2ccc(F)cc2)CC1 | 15 | 3.5 | -4% | 2.3 | 3 | 0.5 | -17
8 | CN(CC(=O)Nc1ccc(F)c(F)c1F)C(=O)c1ccc2c(c1)OCCO2 | -4 | -5.4 | -2% | . | -3 | -1.2 | 4
9 | Cn1nc(C(F)(F)F)c(/C=N/OC(=O)c2ccc(Cl)cc2)c1Cl | -7 | 0.1 | -5% | 2.0 | 5 | -3.2 | 8
10 | COc1ccc(CNC(=O)CN(c2cccc([N+](=O)[O-])c2)S(C)(=O)=O)cc1 | -2 | -1.8 | -2% | 0.4 | -9 | 3.3 | 5
11 | O=[N+]([O-])c1cccc(-c2ccc(C(=S)N3CCN(c4ccc(F)cc4)CC3)o2)c1 | -9 | -0.3 | . | 2.6 | -2 | 0.1 | -2
12 | OCCCn1c(-c2ccccc2)csc1=Nc1ccccc1 | 40 | 7.1 | 32% | -0.6 | 10 | -1.8 | -57
13 | C[C@@]12C(=O)Nc3ccccc3C(=O)N1[C@H]1c3cc(Br)ccc3OC[C@@H]1[C@@H]2c1ccccc1 | -4 | 2.2 | . | . | 7 | 3.0 | .
14 | CS(=O)(=O)Cc1cc(Sc2ccccc2)nc(-c2ccncc2)n1 | 29 | 2.1 | . | 0.7 | -6 | -6.0 | 15
15 | O=C(COC(=O)c1cc[n+]([O-])cc1)NC(=O)c1ccc(OC(F)F)cc1 | -1 | 1.4 | . | . | -1 | -3.8 | .
16 | N#CCC1c2ccccc2CCN1C(=O)Nc1cccc(Cl)c1 (centres undefined) | 2 | -2.5 | -2% | -1.6 | -7 | -1.4 | -27
17 | CCCSc1nnc(NC(=O)Nc2ccccc2OC)s1 | -1 | 6.6 | -5% | -0.6 | 0 | -1.0 | 0
18 | COC(=O)CSc1cc(C)nc(SC)n1 | -2 | 2.3 | -3% | 1.1 | -4 | 0.2 | 4
19 | Cc1cc(N2CCCC2)nc2ccc(NC(=S)NCCCN3CCC(C)CC3)cc12 | 70 | -3.7 | 2% | 0.6 | 6 | 17 | -1
20 | O=C(Nc1ccc2c(c1)CCC2)c1ccc(Br)s1 | -3 | -1.7 | -13% | -2.4 | 0 | -0.1 | 9

Entries by screen from the list.
Entries 7–12 in Calb FLC: -17, 4, 8, 5, -2, -57
Entries 7–12 in B2AR ag: 3, -3, 5, -9, -2, 10

(continued)
No. | Compound | ALR inh | LANA-H2B inh | Vif A3G | RanGTP-Imp inh | B2AR ag | HNF4A DNA FP | Calb FLC
21 | COc1ccc(O)c(CN2CCN(C/C=C/c3ccccc3)CC2)c1 | 0 | 2.4 | ? | 0.8 | 0 | 0.1 | 4
22 | O=C(Cn1nc(-c2ccc(Cl)cc2)ccc1=O)N1CCN(c2ccccc2)CC1 | -17 | -1.9 | -3% | 1.3 | -20 | 0.5 | 0
23 | CCN(CC(=O)NC1CCS(=O)(=O)C1)c1nc(-c2cccnc2)nc2ccccc12 (centres undefined) | 11 | -3.4 | 3% | -2.2 | 9 | 5.0 | 3
24 | O=C(c1ccc2c(c1)OCO2)C1CCCN(C(=O)c2cnn(Cc3ccccc3)c2)C1 (centres undefined) | . | -1.5 | -2% | ? | -1 | 0.2 | 0
25 | CCc1ccc(NC(=O)N[C@H](C(=O)O)C(C)CC)cc1 (some centres undefined) | -14 | 3.5 | 9% | 2.0 | 7 | 0.4 | 0
26 | Cc1ccc(CNC(=O)C23CN(Cc4ccccc4)CC2C(c2ccc([N+](=O)[O-])cc2)=NO3)o1 (centres undefined) | -4 | -3.1 | 8% | -0.3 | 1 | 5.9 | 0
27 | CCOC(=O)C1C(=O)C=C(C)C(C(=O)OCC)C1c1ccc(OC)cc1 (centres undefined) | -1 | 3.6 | ? | 3.4 | 11 | 0.8 | 13
28 | CC1CC1C(=O)Nc1ccc(-c2ccccc2)cc1 (centres undefined) | 0 | 3.8 | . | -1.0 | 4 | 4.5 | ?
29 | NNC(=O)c1cc(-c2ccccc2)sc1N | 97* | 2.6 | 9% | ? | 1 | 1.3 | -3
30 | COc1ccc(C#Cc2ccc3c(=O)c4ccccc4n(C)c3c2)cc1 | 0 | 4.2 | . | 88* | 3 | . | 1
31 | COC(=O)c1cccc(-n2nnnc2SCC(=O)Nc2nc3c(s2)CCCC3)c1 | 58 | -6.0 | 2% | -2.5 | 9 | -2.0 | -9
32 | c1ccc(-c2cn3c4c(sc3n2)CCCC4)cc1 | -34 | 1.3 | 4%&-2% | ? | -2&-22 | 4.5&1.6 | 18
33 | CC(=O)c1ccc(NC(=O)CSc2ccc3nnc(-c4ccccn4)n3n2)cc1 | -17 | 1.3 | . | 4.4 | 1 | -0.8 | -2
34 | CCOC(=O)C1(Cc2cccc(F)c2)CCN(C(=O)COC)CC1 | . | . | 8% | -5.3 | 3 | -1.3 | -2
35 | O=C(Nc1ccc2c(c1)CCCN2C(=O)c1ccccc1)c1ccccc1 | -16 | 2.5 | . | 1.7 | 2 | -5.8 | -8
36 | Cc1ccc(C2=Nc3ccccc3N=C(c3ccc([N+](=O)[O-])cc3)C2)c(O)c1 | -9 | 11 | . | -1.2 | -7 | 1.5 | 2
37 | COCCN1C=C2C(=O)C(C)(OC(=O)c3cccs3)C(=O)C=C2C=C1CCCC(=O)OC (centres undefined) | -48 | 0.8 | . | 3.6 | -4 | 7.2 | -1
38 | COC(=O)CSc1c(-c2ccccc2)c2cc(Cl)ccc2[nH]c1=O | -1 | 0.3 | -3% | 0.4 | 8 | 4.0 | -7
39 | CCOC(=O)N1CCN(Cc2nc3cc(NC(=O)c4cccs4)ccc3n2CC)CC1 | -6 | 1.2 | -5% | -1.7 | 18 | 3.7 | -1
40 | CCOC(=O)N1CCN(S(=O)(=O)c2cn(C)c(=O)n(C)c2=O)CC1 | -7 | 1.8 | . | -4.9 | 3 | 1.1 | -1

2 entries picked at random from those above, as already listed:
No. | Compound | ALR inh | LANA-H2B inh | Vif A3G | RanGTP-Imp inh | B2AR ag | HNF4A DNA FP | Calb FLC
2 | Cc1cc(SCC(=O)N/N=C/c2ccc(C(=O)O)cc2)nc2ccccc12 | 99* | -1.0 | -3% | 3.6 | -3 | -1.9 | 4
15 | O=C(COC(=O)c1cc[n+]([O-])cc1)NC(=O)c1ccc(OC(F)F)cc1 | -1 | 1.4 | . | . | -1 | -3.8 | .

Remaining list, next part:
No. | Compound | ALR inh | LANA-H2B inh | Vif A3G | RanGTP-Imp inh | B2AR ag | HNF4A DNA FP | Calb FLC
41 | O=C(Nc1cccc(F)c1)Nc1ccccn1 | 6 | 5.2 | 1% | -0.7 | -4 | 2.9 | -4
42 | O=C(COc1ccccc1)Nc1cccc(S(=O)(=O)N2CCCC2)c1 | . | . | 4% | . | -2 | -0.1 | .
43 | Cc1nc2ncnn2c(C)c1CCC(=O)N1CCc2ccccc21 | -3 | -3.6 | 0% | -1.9 | 23 | 3.6 | -14
44 | COc1ccccc1-c1nnc(SC(C)C(=O)N2CCOCC2)o1 (centres undefined) | 0 | 1.0 | . | . | -1 | -1.2 | -3
45 | COc1ccc(CCn2c(C)cc(C(=O)COC(=O)c3cnccn3)c2C)cc1 | 4 | 2.2 | . | -1.5 | 3 | -1.0 | -15
46 | CC(C(=O)Nc1cccc(Br)c1)c1ccc([N+](=O)[O-])cc1 (centres undefined) | . | 5.2 | 1% | -1.9 | 11 | 2.1 | -76
47 | CC(CCN1CCN(c2ccccn2)CC1)c1ccccc1 (centres undefined) | 0 | 0.5 | . | -0.1 | -4 | -1.6 | -2
48 | CCc1ccc(C2CC(c3ccccc3Cl)Nc3nc(N)nn32)cc1 (centres undefined) | 3 | -8.5 | 1% | 0.1 | -1 | 2.0 | 12
49 | CC(C)(NO)/C(=N\O)c1ccc(Cl)cc1 | -3 | -3.4 | -3% | -1.9 | 1 | -2.2 | 1
50 | COC(=O)c1c(C)[nH]c(C(=O)OCC(=O)NCC(C)C)c1C | . | 1.7 | 1% | -1.6 | -3 | 2.2 | 1
51 | O=C(c1ccco1)N1CCN(c2nnc(-c3ccccc3)c3ccccc23)CC1 | 12 | 1.6 | -1% | -0.4 | -6 | -0.5 | -14
52 | COc1ccc2[nH]cc(C(=O)CN3CCCCC3C)c2c1 (centres undefined) | . | . | 2% | 1.1 | . | . | -13
53 | O=CN1CCN(C(=O)c2ccccc2F)CC1 | -6 | -2.4 | -2% | -4.6 | 2 | -0.5 | 0
54 | COC(=O)c1cc(Br)c(=O)n(CCN2CCOCC2)c1 | -1 | 4.6 | -5% | 5.4 | -5 | -1.1 | .
55 | CCOC(=O)CC/C(=N\NC(N)=O)c1ccc(OC)c(Cl)c1 | -2 | 5.0 | . | ? | 4 | 2.2 | 3
56 | Cc1c(C(=O)O)sc2nc(/C=C/c3ccccc3OC(F)F)[nH]c(=O)c12 | -3 | 5.0 | . | 3.7 | 5 | -5.0 | 2
57 | Cc1ccc2nc(C)c(C(=O)NN=C3CCCCCC3)n2c1 | 36 | 0.7 | . | 3.0 | -4 | -1.7 | -7
58 | CC1CCN(S(=O)(=O)c2ccc3c(c2)CC(C)N3C(=O)C2CCC2)CC1 (centres undefined) | -1 | -4.2 | . | 0.9 | -4 | 0.3 | 0
59 | CC(CCc1ccccc1)NC(=O)c1cccs1 (centres undefined) | 8 | -4.9 | -7% | -1.4 | -12 | -1.3 | -7
60 | CCOC(=O)C1CCN(CC(=O)c2ccc(O)c(C)c2O)CC1 | -1 | -2.4 | . | 3.8 | 19 | 3.0 | -3
61 | COc1ccc(NS(=O)(=O)c2c(C)[nH]c(=O)[nH]c2=O)cc1OC | -8 | -1.6 | -2% | 1.4 | 1 | 0.6 | -5
62 | C=CCc1cc(OC)ccc1OCCN1CC(C)OC(C)C1 (centres undefined) | 13 | 1.9 | 3% | -2.3 | 3 | -2.0 | -3
63 | O=C(Cc1ccc(F)cc1)OCC(=O)c1cc2ccccc2o1 | -11 | -10 | 0% | -5.8 | 7 | -0.2 | -3
64 | O=C(NCCCn1ccnc1)c1cc2c(ccc3ccccc32)o1 | -24 | 0.5 | -3% | 1.6 | . | . | -3
65 | COc1ccccc1N1CCN(Cc2ccc(O)c3ncccc23)CC1 | 4 | 0.5 | 28% | 13 | 15 | -1.0 | -6
